Marburg entry inh – blocks Marburg virus binding to or entry into cells. Potency, µM (doses to about 37.8 µM), for the others: at the highest dose activity change, negative = inhibition, hits mostly inhibitors. 1.8% of 300,000 active. Marburg virus pseudotyped entry inhibition, cell reporter; control for the full effect not named in the record; about a third of the inactives were read at about 46 µM; active = well fitted inhibition curve with a large enough effect; inconclusive = small, poorly fitted or top-dose-only effect, or effect the other way; inactive = flat fitted curve, though single readings scatter; tested in HEK293 cells; about a fifth of its hits are not listed in these tables; note: % is set by controls: 0 for no effect and ±100 for the full control effect; luciferase read-out
RE007 growth inh – less growth of the S. pombe RE007 Vpr strain; S. pombe RE007 Vpr strain, BacTiter-Glo ATP luminescence, 24 h; control for the full effect not named in the record; AID 651644; 0.21% of 360,000 active; Potency, µM (top dose mostly 92.2 µM), without a hit: at the top dose activity change, negative = less growth; active = well fitted falling curve with a large enough effect; inconclusive = small, poorly fitted or top-dose-only effect; inactive = no such curve, though single readings can be large or run the other way;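 note: % is set by controls: 0 for no effect and ±100 for the full control effect; nearly all actives have a fitted effect of over 50% in size; the assay follows cell death caused by Vpr and the record does not say whether a fall means rescue or toxicity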
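Fission yeast RE007 carrying one integrated HIV-1 vpr copy, seeded at OD 0.01 in PMG+AL medium with 23 nL pinned compound. Grown 24 h at 30 degrees; viability read by BacTiter-Glo luminescence after 5 min.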
Lassa entry inh – inhibitors of Lassa virus binding or cell entry | Lassa virus pseudotype entry inhibition, cell reporter; control for the full effect not named in the record | 1.2% of 300,000 active | AID 540256 | Potency, µM (doses to about 37.9 µM), without a hit: at the top dose activity change, negative = inhibition, actives largely listed as inhibitors; active means well fitted inhibition curve with a large enough effect; inconclusive means small, poorly fitted or top-dose-only effect, or effect the other way; inactive means flat fitted curve, though single readings scatter; tested in HEK293 cells; note: % is set by controls: 0 for no effect and ±100 for the full control effect; nearly all actives have a fitted effect of over 50% in size; luciferase read-out
NS1 inh – blocks influenza NS1 protein function; 0.4% of 270,000 active; S. cerevisiae slowed by influenza A NS1, growth recovery by OD600; Potency, µM (titrated, usually from 46.1 µM), for the others: at the top dose activity, positive = more growth; note: actives are rising curves; nearly all actives have a fitted effect of over 50% in size
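A cell-based growth assay was used: compounds that relieve NS1-induced slow growth of budding yeast raise OD600. Assay medium was yeast nitrogen base with ammonium sulphate and -URA supplement, pH 6.0, with 2% galactose.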
SARS PLpro yeast – inhibitors of SARS-CoV papain-like protease in yeast; S. cerevisiae expressing SARS-CoV PLpro, growth rescue; control for the full effect not named in the record; Potency, µM (highest dose often 32.9 µM), for the others: at the top dose activity, positive = growth rescue; 0.19% of 330,000 active; AID 485353; note: 0% is about no effect; nearly all actives have a fitted effect of over 55% in size; growth read by luminescence after 48 h
Cruzain noTriton – blocks cruzain activity in detergent-free assay. Potency, µM, without a hit: max response, negative = inhibition, usual class: inhibitors. AID 1476. P25779. 2.3% of 200,000 active. purified cruzain, Z-FR-AMC fluorescence, no detergent; active = well fitted curve in the direction sought with a large enough effect; inconclusive = small, poorly fitted or top-dose-only effect, or another doubt; inactive = no such curve, though single readings can be large; an effect the other way counts as inactive or inconclusive;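 note: plate controls were enzyme without inhibitor for no effect and buffer without enzyme for full effect; nearly all actives have a fitted effect of over 40% in size; top concentration of the series not given in the record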
Target sequence (P25779 123-467 limits assumed): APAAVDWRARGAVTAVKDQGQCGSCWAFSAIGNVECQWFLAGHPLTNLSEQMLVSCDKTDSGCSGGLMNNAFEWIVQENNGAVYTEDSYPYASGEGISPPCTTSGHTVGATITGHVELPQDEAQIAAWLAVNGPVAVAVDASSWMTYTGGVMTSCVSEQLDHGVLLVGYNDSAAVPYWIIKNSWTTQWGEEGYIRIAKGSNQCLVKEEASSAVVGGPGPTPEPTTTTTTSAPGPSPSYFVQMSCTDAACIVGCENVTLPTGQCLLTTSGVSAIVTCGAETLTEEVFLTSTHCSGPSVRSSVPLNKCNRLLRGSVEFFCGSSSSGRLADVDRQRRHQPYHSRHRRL
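Detergent-free condition (0.00005% Triton X-100) in acetate buffer pH 5.5 with DTT. 1.5 nM enzyme and compound were pre-mixed 15 min, then 2 uM Z-FR-AMC substrate added; reaction progress from fluorescence change between first and third reads (60 s).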
Cruzain inh Det – inhibitors of Trypanosoma cruzi cruzain with detergent; P25779; purified cruzain, Z-FR-AMC fluorescence, 0.01% Triton; Potency, µM, for the others: max response, negative = inhibition, hits mostly inhibitors; 0.43% of 200,000 active; AID 1478; active = well fitted curve in the direction sought with a large enough effect; inconclusive = small, poorly fitted or top-dose-only effect, or another doubt; inactive = no such curve, though single readings can be large; an effect the other way counts as inactive or inconclusive;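 note: plate controls were neutral wells for no effect and buffer without enzyme for full effect; nearly all actives have a fitted effect of over 40% in size; top concentration of the series not given in the record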
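Z-FR-AMC hydrolysis (2 uM substrate) by cruzain (1.5 nM) monitored kinetically at ex 360/em 450 nm after 15 min room-temperature compound exposure; 0.01% Triton X-100, pH 5.5, 5 mM DTT.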
2A StopGo – FMDV 2A StopGo reporter, luciferase signal; human cells with a luciferase reporter of 2A StopGo recoding; control for the full effect not named in the record; 1.2% of 410,000 active; Potency, µM (top dose mostly 57.9 µM), inactives show at the highest dose signal change, negative = less light; AID 1159524; active = well fitted falling curve with a large enough effect; inconclusive = small, poorly fitted or top-dose-only effect; inactive = no such curve, though single readings can be large or run the other way; tested in HEK293T cells; note: % is set by controls: 0 for no effect and ±100 for the full control effect; nearly all actives have a fitted effect of over 45% in size; luciferase light after 4 h
Starred values were filed as active, the others as inactive; ? = inconclusive; . = not tested or not shown; & = joins results of further samples; [ ] = another dose, or the depositor's remark. Unless noted, calls come from the whole dose curve; as a rule, active means well fitted rising curve with a large enough effect; inconclusive means small, poorly fitted or top-dose-only effect; inactive means no such curve, though single readings can be large or run the other way. Potency is the fitted concentration of half-maximal effect.

SMILES | Marburg entry inh | RE007 growth inh | Lassa entry inh | NS1 inh | SARS PLpro yeast | Cruzain noTriton | Cruzain inh Det | 2A StopGo
CCCCc1ccc(NC(=O)c2cnccn2)cc1 | 7.9µM* | 5% | 11µM* | . | 3% | . | . | 10%
COc1ccc(CN2CCNC(=O)C2CC(=O)N(C)Cc2ccon2)cc1OC (stereo not drawn) | . | -6% | . | 4% | 0% | . | . | -9%
O=[N+]([O-])c1cccc2cn[nH]c12 | 5%&-22%&-22%&-22%&-22%&-10%&-22%&-22%&-22%&-22% | 0% | 0%&-1% | 2%&-9% | 2% | -13%&3%&-12%&-5% | -8.5%&-3.2%&-0.9%&-7.0% | -12%&4%&-10%
Cc1ccccc1C(=O)N1CCC(c2nc(-c3ccc(S(=O)(=O)N4CCCC4)cc3)no2)CC1 | 17%[46.1 µM] | . | 14%[46.1 µM] | . | . | -7% | 1.9% | -3%
Cc1cc2c(cc1C)CSC(c1ccccc1O)SC2 | ? | ? | -23% | -5% | -9% | -6% | 3.1% | -8%
O=S(=O)(Cc1ccccc1)N1CCN(Cc2c(F)cccc2Cl)CC1 | 4% | 6% | 6% | . | 0% | . | . | -6%
COc1cc(Br)c(/C=C/c2ccc3cccc(O)c3n2)cc1OC | . | 15% | . | 3% | -1% | . | . | 14%
Cc1cc(/C=N/NC(=O)c2cccc(N(C)C)c2)c(C)n1-c1cc(C(=O)O)cc(C(=O)O)c1 | -24%[46.1 µM] | 21% | 23% | . | 0% | . | . | 1%
O=C(COc1cc2oc(=O)c3c(c2cc1Cl)CCC3)N1C[C@H]2C[C@@H](C1)c1cccc(=O)n1C2 | . | -4% | . | 6% | -4% | . | . | 0%
CCOc1ncccc1C(=O)Nc1c(C)n(C)n(-c2ccccc2)c1=O | 0%[46.1 µM] | -12% | 1% | -16% | 8% | . | . | 7%
CCOC(=O)c1c(C)oc2ccc(OCC(N)=O)cc12 | 2% | -7% | -3% | -5% | -9% | 6% | -1.2% | 20%
COc1cc(C(=O)OCC(=O)Nc2ccc(C(C)=O)cc2)ccc1OCC(=O)N1CCOCC1 | ? | -8% | 2% | 2% | 6% | 24% | 1.3% | -21%
OCCNc1nc(Cl)nc(NCc2ccco2)n1 | . | -1% | . | 5% | 15% | . | . | -10%
Cc1nc(N2CCOCC2)c2c(C(=O)N3CCN(c4cccc(C(F)(F)F)c4)CC3)c(C)oc2n1 | . | . | 13%[46.1 µM] | . | . | 4% | -5.5% | -26%
COC(=O)CN1C(=O)[C@H]2[C@@H](c3ccc(C)o3)N3C(=O)CN(Cc4ccccn4)C(=O)[C@@]3(C)[C@H]2C1=O | . | 6% | . | 15% | 3% | . | . | -2%
Cc1ccc(NS(=O)(=O)c2cc(C(=O)NCc3ccncc3)ccc2C)cc1 | ? | -3% | -10% | -10% | 4% | . | . | 96%[activator]
CCOc1ccc(N(CC)C(=O)C2CCN(S(=O)(=O)c3cccc4nonc34)CC2)cc1 | -7%[46.1 µM] | . | -5%[46.1 µM] | . | . | -10% | -2.2% | 0%
Cc1nc(N2CCCC2)ncc1C(=O)Nc1ccc(F)cc1F | . | . | 4%[46.1 µM] | . | . | 0% | 1.1% | 25%
COc1ccc(C2c3cc4c(cc3OC(N3CCOCC3)C2C)OCO4)c(OC)c1 (stereo not drawn) | ? | 21% | 6.3µM* | . | . | . | . | 0%
CC(=O)Nc1ccc(S(=O)(=O)Nc2ncccn2)cc1 | 10% | 11% | ? | 14% | 8% | 0% | 2.9% | 11%
Cc1[nH]c(=O)[nH]c(=O)c1NS(=O)(=O)c1ccc2c(c1)CCCC2 | 11% | 4% | 3% | 0% | 29% | -13% | -0.1% | .
COCCn1nnnc1C(c1cccs1)N1CCN2CCCC2C1 (stereo not drawn) | 2%[46.1 µM] | 15% | -9% | -3% | 0% | . | . | -6%
Cc1nn(CC(=O)N2CCN(C)CC2)c(=O)c2c1sc1ccccc12 | . | -6% | . | -1% | 23% | . | . | -8%
COc1ccc2[nH]c3c(c2c1)CN(C)CC3 | 3% | 3% | 10% | -10% | 6% | -10% | 6.8% | -24%
Cc1cc(OC(C)C(=O)N(Cc2ccco2)C2CCS(=O)(=O)C2)ccc1Cl (stereo not drawn) | . | 13% | . | -6% | 13% | . | . | -17%
SMILES | Marburg entry inh | RE007 growth inh | Lassa entry inh | NS1 inh | SARS PLpro yeast | Cruzain noTriton | Cruzain inh Det | 2A StopGo
CCc1ccccc1NC(=O)CSC1=C(C#N)C(c2ccc(O)c(OC)c2)C2=C(CCCC2=O)N1 (stereo not drawn) | 2%&-7% | -4% | ? | 8%[9.22 µM] | 3% | -16% | -5.2% | ?
Cc1ccc2c(CC(=O)NNC(=O)c3ccccc3)coc2c1 | 2% | 3% | 3% | -2% | -1% | -23% | -2.8% | 25%
CC(=O)c1ccc(OCCn2cnc3ccccc32)cc1 | ? | 3% | -2% | 15% | 11% | -4% | -11% | -21%
COc1cc(-c2noc(C)c2C#CC2(O)CCCCC2)cc(OC)c1OC | . | 14% | . | -39% | -5% | . | . | -20%
CCC1(c2ccc(F)cc2)NC(=O)NC1=O (stereo not drawn) | 2%[46.1 µM] | 2% | -5% | -3% | -3% | . | . | -7%
COCCN1CC(O)=C(c2nc3ccccc3c(=O)[nH]2)C1=N | -6% | 10% | 29% | -34% | 11% | -5% | -3.7% | 6%
CCN(CC)C(=O)C1CCCN(C/C=C/c2ccccc2)C1 (stereo not drawn) | ? | -3% | -11% | -7% | -1% | 0% | 5.5% | ?
COc1ccc(C(=O)NC2CC2)cc1OC1CCN(Cc2cc(C)cc(C)c2)CC1 | -2% | 2% | ? | 2% | -4% | . | . | -28%
CC1CCN(S(=O)(=O)c2cn(CC(=O)N3CCN(c4cccc(C(F)(F)F)c4)CC3)cn2)CC1 | . | 13% | . | 7% | -2% | . | . | ?
COc1cc(CNCCNCC(C)O)ccc1OCc1ccc(Cl)nc1 (stereo not drawn) | -24% | 34% | 0% | 7% | -1% | 2% | -0.2% | -23%
COc1ccccc1NC(=S)NC(=O)c1ccc(Cn2cc(Br)cn2)cc1 | -21% | 10% | ? | 5% | 2% | ? | -7.2% | -28%
CCn1nc(C(=O)Nc2nc3ccc(C)cc3s2)c2ccccc2c1=O | -5% | -6% | -23% | 8% | -2% | ? | -1.0% | .
O=C1CC(N(Cc2ccc3c(c2)OCO3)C(=O)Nc2ccc(F)cc2)C(=O)N1c1ccccc1 (stereo not drawn) | -3% | 2% | 14% | -3% | 1% | -7% | 1.0% | 17%
COC(=O)c1cccc(NC(=O)c2cnoc2C)c1 | -15% | -25% | -10% | -9% | -20% | -5% | 0.2% | 10%
Cc1cc(C)nc(SCC(=O)Oc2ccc3oc(=O)cc(C)c3c2)n1 | ? | -5% | 18% | -12% | -1% | 6% | -2.9% | 17%
O=C(CSc1nnc(-c2cccnc2)n1-c1ccc(F)cc1)NCc1ccc2c(c1)OCO2 | ? | -2% | 11% | -2% | 5% | 2% | 2.3% | -14%
C/C(=N\NC(=O)c1cc(C2CC2)nc2ccccc12)c1ccc(O)cc1O | ? | 3% | ? | -16% | ? | . | . | 4%
CCC(C)[C@H](NC(=O)NC1CCCc2ccccc21)C(=O)OC (stereo partly drawn) | -13% | 0% | 10% | 3% | 1% | . | . | -4%
OC1(c2ccccc2F)CCN(Cc2nnnn2CCc2ccccc2)CC1 | -8% | 5% | ? | -8% | -4% | 18% | -2.6% | .
Clc1cc(Br)ccc1NCc1cccnc1 | . | -30% | . | -54% | -8% | . | . | 1%
Cc1cccc(OCC(=O)Nc2nonc2-c2ccc(Br)cc2)c1C | 12%[46.1 µM] | . | -2%[46.1 µM] | . | . | -1% | -2.5% | -25%
O=C(O)c1ccc(CN2CCCCC2)o1 | 1% | 3% | 16% | 3% | 5% | 3% | 2.6% | .
COc1cc(C(=O)NCC(=O)Nc2ccc(F)c(F)c2)ccc1OCC(=O)N1CCOCC1 | 1% | 2% | 27% | . | 9% | . | . | -6%
Cc1ccc(NC(=O)Cn2nnc3sc4c(c3c2=O)CCC(C)C4)cc1 (stereo not drawn) | . | . | ? | . | . | -7% | 1.2% | -14%
COC(=O)Nc1ccc(Cc2ccncc2)cc1 | -1% | 20% | 15% | 1% | 0% | . | . | -6%
SMILES | Marburg entry inh | RE007 growth inh | Lassa entry inh | NS1 inh | SARS PLpro yeast | Cruzain noTriton | Cruzain inh Det | 2A StopGo
COc1cc(SC)ccc1C(=O)Nc1nc(C)cs1 | . | ? | . | -2% | -5% | . | . | 3.2µM*
Cc1cc(C)n(-c2nc(Nc3ccccc3C)nc(-n3nc(C)cc3C)n2)n1 | 2% | . | . | 27% | -4% | -6% | -4.3% | .
CCc1ccccc1N1C(=O)N(Cc2cc(=O)n3ccccc3n2)c2ccccc2S1(=O)=O | . | . | ? | . | . | ? | -1.7% | ?
O=C(O)c1ccc(OCC2CCCO2)cc1 (stereo not drawn) | 28%[46.1 µM] | 1% | 0%[46.1 µM] | -3% | 1% | . | . | -4%
Cc1ccc(Cl)cc1-n1ncc2c(Nc3ccc4c(c3)OCCO4)ncnc21 | . | . | ? | . | . | -7% | 2.5% | ?
Cc1ccccc1NC(=O)Cn1c(=O)n(CCCC(=O)NCc2ccc3c(c2)OCO3)c(=O)c2ccccc21 | ? | . | 10%[46.1 µM] | . | . | 1% | -1.9% | -11%
CSc1nc(C)cc(OCNC(=O)c2cccs2)n1 | 5% | 7% | 0% | -4% | 5% | -3% | -1.5% | -15%
Cc1cc(C)c2c(CN3CCN(Cc4ccc5c(c4)OCO5)CC3)cc(=O)oc2c1C | 13% | 1% | -5% | -20% | -4% | 9% | 0.9% | ?
O=C(CCN1C(=O)c2ccc(Br)cc2C1=O)NC1CCCCC1 | 0% | 16% | -5% | 17% | 7% | . | . | -6%
Cn1nc(C(=O)NCc2cccc(Cl)c2)c2c1-c1ccccc1S(=O)(=O)C2 | . | 7% | 7%[46.1 µM] | 13% | 11% | 8% | -1.0% | -17%&-20%
Cc1cccc(NC(=O)C2CC(=O)N(c3ccccc3)C2)c1C (stereo not drawn) | 27% | 9% | -1% | 6% | -1% | 4% | 2.6% | -29%
CSc1nc(-c2ccc(Cl)cc2)c(C#N)c(=O)[nH]1 | 12%[46.1 µM] | 0% | -17% | 3% | 1% | . | . | -13%
COc1ccc(Cn2ccnc2SCC(=O)Nc2ccccc2)cc1 | 5% | -18% | 11% | -14% | -2% | . | . | -22%
CCc1[nH]c(=S)c(C#N)c(-c2ccccc2)c1C(=O)OC | 5% | 18% | 0% | 10µM* | ? | -16% | -7.0% | 0%

Bioassay records as filed in PubChem BioAssay.
